Sfp inh: Sfp phosphopantetheinyl transferase inhibition; 310,000 tested, 3.5% active; Potency, µM, for inactives: max response, negative = inhibition, actives largely listed as inhibitors; Biochemical Sfp PPTase activity, qHTS; Q9F4F7; active = well fitted inhibition curve with a large enough effect; inconclusive = small, poorly fitted or top-dose-only effect, or another doubt; inactive = no such curve, though single readings can be large or run the other way;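 also: the enzyme is Sfp with the accession as filed and its product quenches rhodamine fluorescence; potency is read from the fitted curve at half-maximal effect; 0% = enzyme reaction without inhibitor and -100% = no enzyme wells; top concentration of the series not given in the record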
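Reaction rates are the 30-min fluorescence difference (ex 525, em 598 nm) in wells containing 15 nM Sfp, 5 uM rhodamine-CoA and 12.5 uM BHQ-2-YbbR at pH 7.6 with 10 mM MgCl2.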
gsp ag: agonists of gsp mutant (McCune-Albright syndrome). AID 624287. 340,000 tested, 0.13% active. Potency, µM (highest dose often 76.9 µM), for inactives: at the highest dose activation (cAMP increase), most hits filed as activators. gsp mutant cells, cAMP HTRF, 30 min; control for the full effect not named in the record; active = well fitted activation curve with a large enough effect; inconclusive = small, poorly fitted or top-dose-only effect, or another doubt; inactive = no such curve, though single readings can be large or run the other way; cell line not stated here;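 also: phosphodiesterase inhibitor Ro 20-1724 added with compounds to block cAMP breakdown; potency is read from the fitted curve at half-maximal effect; nearly all actives have a fitted effect of over 60% in size; about a fifth of the inactives were tested at one dose only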
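Cells in DMEM/10% FBS with G418 were pretreated with compounds in DMSO plus […] (300 uM stock) for 30 min at 37C. cAMP was measured by HTRF (cAMP-d2 plus anti-cAMP antibody-K) after 30 min at room temperature.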
ClpP mod: qHTS Assay for Activators of ClpP; ATP-dependent Clp protease proteolytic subunit (Bacillus subtilis (strain 168)), P80244; purified B. subtilis ClpP, FRET peptide cleavage, 20 min; Potency, µM (doses to about 57.5 µM), inactives show at the top dose activity change, negative = active; 340,000 tested, 1.9% active; AID 651965, 2013; active = well fitted falling curve with a large enough effect; inconclusive = small, poorly fitted or top-dose-only effect; inactive = no such curve, though single readings can be large or run the other way; also: potency is read from the fitted curve at half-maximal effect; the source files actives as falling curves though it sought activators and does not explain the sign; nearly all actives have a fitted effect of over 65% in size; many hits overshoot -100%
Target sequence (P80244 whole entry, looked up): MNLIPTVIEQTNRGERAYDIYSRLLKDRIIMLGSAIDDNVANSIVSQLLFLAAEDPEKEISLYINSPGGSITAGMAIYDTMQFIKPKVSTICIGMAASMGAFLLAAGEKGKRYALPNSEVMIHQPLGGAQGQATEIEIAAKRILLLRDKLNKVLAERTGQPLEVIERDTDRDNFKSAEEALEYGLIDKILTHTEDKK
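Purified B. subtilis ClpP, 10 microg/mL final in Tris/HCl pH8 with KCl, BSA, glycerol and Tween-20, cleaved an Abz/nitrotyrosine-quenched decapeptide. Fluorescence (ex 320, em 430) was read at 0 and 20 min at room temperature. Delta was normalized to 5.8 microM ADEP and DMSO/no-enzyme controls.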
TRPV1 potentiator: human TRPV1 potentiation. Q8NER1. TRPV1-expressing cells, Fluo-8 calcium influx, capsaicin EC20 potentiation; host cell line not named in the record; control for the full effect not named in the record. potentiation, % at 8.33 µM. 320,000 tested, 0.02% active; active means potentiation above 80%; inconclusive means 30% to 80%; inactive means below 30%; also: 0% is about no effect
Target sequence (Q8NER1 whole entry, looked up): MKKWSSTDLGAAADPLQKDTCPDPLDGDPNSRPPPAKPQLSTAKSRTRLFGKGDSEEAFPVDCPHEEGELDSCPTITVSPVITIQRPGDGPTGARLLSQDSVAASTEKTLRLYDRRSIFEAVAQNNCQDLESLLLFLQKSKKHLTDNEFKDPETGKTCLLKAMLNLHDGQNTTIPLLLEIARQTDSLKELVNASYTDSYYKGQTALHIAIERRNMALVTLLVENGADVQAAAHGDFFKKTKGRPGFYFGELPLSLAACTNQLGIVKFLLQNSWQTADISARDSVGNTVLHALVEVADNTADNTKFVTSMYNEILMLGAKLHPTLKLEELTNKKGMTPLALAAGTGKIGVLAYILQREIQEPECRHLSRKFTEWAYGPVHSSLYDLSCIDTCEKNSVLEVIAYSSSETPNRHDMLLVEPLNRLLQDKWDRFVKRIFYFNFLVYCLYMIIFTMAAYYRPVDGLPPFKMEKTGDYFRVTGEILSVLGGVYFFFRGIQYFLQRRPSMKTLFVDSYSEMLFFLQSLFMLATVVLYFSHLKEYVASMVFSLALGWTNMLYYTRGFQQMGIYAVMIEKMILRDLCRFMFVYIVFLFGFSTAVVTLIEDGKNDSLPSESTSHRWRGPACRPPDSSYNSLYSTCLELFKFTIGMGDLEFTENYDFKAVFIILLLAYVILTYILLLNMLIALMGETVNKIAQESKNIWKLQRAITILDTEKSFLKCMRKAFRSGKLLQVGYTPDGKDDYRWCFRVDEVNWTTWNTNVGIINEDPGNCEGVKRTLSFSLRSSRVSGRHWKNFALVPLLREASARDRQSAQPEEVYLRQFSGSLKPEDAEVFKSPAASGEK
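TRPV1-expressing cells were cultured overnight at 35.5C and loaded with Fluo-8 calcium dye for 40 to 90 min at room temperature. After a 10 s baseline, compound was added and calcium influx was read kinetically for 3 min (ex 480/em 520 nm).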
gsp antag: antagonists of gsp mutant (McCune-Albright syndrome); gsp-mutant cells, cAMP HTRF, 30 min; control for the full effect not named in the record; Potency, µM (titrated, usually from 76.9 µM), without a hit: at the highest dose activity change, negative = inhibition, actives largely listed as inhibitors; 340,000 tested, 0.4% active; active = falling curve of any shape with a large fitted effect; inconclusive = falling curve, mostly with a smaller effect; inactive = flat or rising curve; cell line not stated here;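 also: intracellular cAMP measured with PDE inhibitor Ro 20-1724 present during compound exposure; potency is read from the fitted curve at half-maximal effect; % is scaled to controls: 0 for no effect and ±100 for the full control effect; nearly all actives have a fitted effect of over 65% in size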
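Cells in G418 medium, seeded 16-24 h, 37C; buffer exchange to DPBS + 1 mM CaCl2, 0.5 mM MgCl2, 0.05% BSA; cpds in DMSO + […] (300 uM stock), 30 min 37C; HTRF cAMP detection.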
Menin MLL FP FL: displaces fluorescein MLL peptide from human menin; Fluorescence polarization, fluorescein-MLL peptide displacement from menin; 290,000 tested, under 10 active; FP activity change, % at 61.4 µM; inconclusive = falling polarisation curve, or a change in total fluorescence; inactive = total fluorescence flat and polarisation flat or rising; no compound was filed as active; the % refers to the polarisation; negative = inhibition;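 also: % of control where 0% means no effect; inhibitors lower the polarisation; unlabelled MLL peptide was the positive control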
TRPML1 inh: blocks the human TRPML1 channel; TRPML1-inducible cells, Ca2+ dye fluorescence, FDSS; active compounds read low; inhibition of EC80 agonist-evoked calcium signal; 390,000 tested, 0.02% active; Q9GZU1; activity change, negative = inhibition, % (test concentration not listed); AID 624415; in the data active means activity change below about -50%; inconclusive means about -30% to -50%; inactive means above about -30%;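 also: stimulus is agonist 54-4 at its EC80 concentration; % is scaled to controls: 0 for no effect and ±100 for the full control effect; compound concentration not given in the record; the text of the record puts the active cut at -80%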
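Calcium fluorescence in TRPML1-DL cells induced overnight with Tet: a 110 s read after compound pin addition, then a 110 s antagonist read after challenge with 54-4 at 4 uM final (EC80).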
* marks the source's active call; other numbers are inactive results; ? = inconclusive; · = not tested or not shown; & = joins results of further samples; [ ] = dose if it differs, or a comment.

SMILES	Sfp inh	gsp ag	ClpP mod	TRPV1 potentiator	gsp antag	Menin MLL FP FL	TRPML1 inh
CC12CCC(C(=O)N(CSC(=S)N/N=C\c3ccccc3Cl)C1=O)C2(C)C (stereo not given)	-4%	0%[15.4 µM]	-11%	?	-13%	-1.3	-4
Cc1ccccc1NS(=O)(=O)c1cc2c3c(c1)C(C)C(=O)N3CCC2 (stereo not given)	16%	?	-1.8%	3	-6%	·	22
C=CCn1c2ccccc2c2nnc(SCc3ccc4nonc4c3)nc21	6%	-4%	0.3%	-49	1%	2.4	8
COc1cccc(CNC(=O)N[C@@H](C)C(=O)O)c1	8%	-6%	0.6%	2	8%	-1.4	3
COc1ccc(C(=O)/C=C/c2cccs2)c(OC(=O)c2cccc([N+](=O)[O-])c2)c1	2%	43%	-0.5%	29	14%	-3.2	9
CC(NC(=O)C1CSC2(C)CCC(=O)N12)c1ccccc1Cl (stereo not given)	·	-10%[15.4 µM]	-1.4%	24	4%	·	11
O=C(c1cc2ccccc2oc1=O)N(Cc1cccs1)Cc1cccs1	6%	-6%	-2.3%	-9	?	0.3	4
O=C(NC1CCCCC1)c1ccc([N+](=O)[O-])o1	-1%	-4%[15.4 µM]	-128%	6	4%	-7.4	-25
Cc1ccc(S(=O)(=O)CCC(=O)OCC(=O)NC(C)c2ccc(F)cc2)cc1 (stereo not given)	·	0%	-2.2%	-6	-5%	·	14
COc1cc(OC)c(C(=O)CCCN2CCCC2)c(OC)c1	17%&-15%	·	0.3%	2	1%	3.7	-21
Nc1ccc2c(c1)C(=O)c1ccccc1C2=O	·	0%[15.4 µM]	-2.6%	1	-1%	·	-11
O=C(c1ccc(Cl)cc1)C1CCN(C(=O)N2CCOCC2)CC1	22%	-50%[inhibitor]	1.1%	-5	-2%	-1.2	-8
CN(C)C(=N)c1n[nH]nc1SCc1ccccc1	18%	-8%[15.4 µM]	·	?	-9%	0.7	-8
COc1ccc(/C=C2\SC(=NCc3ccccc3)N(Cc3ccccc3)C2=O)cc1OC	-7%	-31%[inhibitor]	?	9	4%	1.2	29
CCOC(=O)c1ccc(NC(=O)CSc2nncn2-c2cccnc2)cc1	-5%	13%[15.4 µM]	·	1	-1%	-2.4	34
CCCCCOc1ccccc1C(=O)NCCC(=O)O	2%	2%	0.6%	-7	-21%	-1.7	-2
C=CCNC(=O)C1CC(=O)N(c2ccc(OCC(=O)Nc3ccc(OC)cc3)cc2)C1 (stereo not given)	8%	-18%	0.8%	0	7%	0.5	14
C=C(C)CN=C1SC(C(=O)Nc2sc3c(c2C(=O)OC)CCC3)C(N)=C1C(N)=O (stereo not given)	?	1%	?	11	6%	18	-13
O=C(c1ccc2c(c1)OCO2)C1CCCN(C2CCN(CCc3ccccc3)CC2)C1 (stereo not given)	10%	-15%	·	13	7%	0.6	16
CC[C@@H]1CCCCc2ccccc2[C@@H](C(=O)C[C@@H](O)CC(C)=O)OC1=O	·	·	0.9%	·	-10%	·	2
CC(C)c1ccc(CCNC(=O)CCNS(=O)(=O)c2ccc(Br)cc2)cc1	·	-1%	2.0%	1	5%	·	7
Cc1cccc(NS(=O)(=O)Cc2ccccc2)c1C	12%	-3%[15.4 µM]	0.0%	-26	-4%	0.7	12
CC1CC(N(C(=O)c2ccccc2Cl)c2ccccc2)c2ccccc2N1 (stereo not given)	10%	-13%	-2.0%	-1	-13%	0.5	18
c1csc(-c2cnc3n2CCCC3)c1	-1%	-5%	-7.5%	-14	3%	0.0	-2
O=C(O)C1=C(C(=O)Nc2ccc(F)c(Cl)c2)CCCC1	-13%	3%	-0.5%	-24	-2%	2.3	-5
CC(C)C1(C(C)C)OC(=O)c2ccccc21	5%	-4%[15.4 µM]	0.0%	-8	11%	2.5	7
CCCc1cc(=O)[nH]c(SCC(=O)Nc2cc(S(=O)(=O)N3CCOCC3)ccc2Cl)n1	·	19%	·	·	1%	·	-11
c1ccc2c(c1)nc1n2CCS1	4%	8%	3.4%	-1	4%	1.8	69
COc1ccc(CN2CCN(C(C)C(=O)N3CCc4ccccc43)CC2)cc1OC (stereo not given)	12%	-19%	·	-10	7%	1.9	9
O=C(CCCSc1nc2ccccc2[nH]1)NC(c1ccccc1)c1ccccc1	20%	9%	2.5%	-17	-29%	1.6	3
COc1ccc(OC)c(NS(=O)(=O)c2ccc(NC(=O)C3COc4ccccc4O3)cc2)c1 (stereo not given)	4%	-58%[inhibitor]	-1.9%	11	-21%	0.1	-10
Cc1cc(C(=O)CN2C(=O)C(=O)N(Cc3ccccc3)C2=O)c(C)n1Cc1ccccc1	·	-6%	-1.5%	·	11%	·	-13
O=S(=O)(NC1CCCc2ccccc21)c1cnc[nH]1 (stereo not given)	15%	4%	-1.9%	8	8%	-1.3	10
CC(=O)Nc1ccc(NC(=O)CSc2nnc(C)c(=O)[nH]2)cc1	-24%	27%[15.4 µM]	·	-2	13%	-2.7	-28
Cc1cc(=O)oc2ccc(OC(=O)c3cccc(S(=O)(=O)N4CCOCC4)c3)cc12	3%	-18%	1.3%	-2	-6%	-1.9	32
CC12CCC(=O)N1C(C(=O)Nc1nc3ccc(S(C)(=O)=O)cc3s1)CS2 (stereo not given)	13%	11%	-1.2%	2	2%	·	-15
COc1ccc(C2=CC(c3ccc(Cl)cc3)n3cnnc3N2)cc1OC (stereo not given)	-22%	9%[15.4 µM]	7.5%	13	-1%	?	17
O=S(=O)(c1ccc2c(c1)OCCO2)N1CCC(n2cnc3cc(F)ccc32)CC1	-8%	3%	2.1%	-6	-18%	-2.1	12
O=C(CNC(=O)Cc1ccccc1)N=Nc1c(O)n(Cc2ccc3c(c2)OCO3)c2ccccc12	-17%	-3%	1.2%	17	?	5.3	3
O=C1CCN(Cc2ccccc2)S(=O)(=O)c2ccccc21	2%&8%	·	0.4%	13	4%	-2.1&3.1	13&64
O=C(NC1CC1)c1cc2cc3ccccc3nc2s1	-1%	?	-21%	-2	6%	-0.5	2
CCN1C(=O)N[C@@H](CCc2ccccc2)C(C(=O)OC)=C1C	2%	·	-0.3%	·	5%	-2.9[11.7 µM]	-9
CCC(C)(C)NC(=O)C(c1cccnc1)N(CCOC)C(=O)Cn1nnc2ccccc21 (stereo not given)	5%	8%	-3.3%	2	1%	2.9	9
C=C(C)Cn1c(=O)c2c(nc3n2CCCN3CCc2ccccc2)n(C)c1=O	6%	0%	-6.0%	9	-26%	-0.6	40
COCCNC(=O)CC(NS(=O)(=O)c1ccc(C)cc1)c1ccco1 (stereo not given)	-22%	-66%[inhibitor]	11%	16	-5%	1.3	-24
O=C1c2c(O)cc(O)cc2O[C@H](c2ccc(O)c(O)c2)[C@@H]1O	-14%	·	·	14	·	10	·
OCn1c2ccccc2c2ccccc21	1%	5%	-19%	10	-2%	3.8	8
COc1cccc(C(=O)c2c(-c3ccccc3)ncc3cc(OC)c(OC)cc23)c1	·	·	-3.0%	·	6%	·	24

Of the compounds above, 3 have fluorine:
SMILES	Sfp inh	gsp ag	ClpP mod	TRPV1 potentiator	gsp antag	Menin MLL FP FL	TRPML1 inh
Cc1ccc(S(=O)(=O)CCC(=O)OCC(=O)NC(C)c2ccc(F)cc2)cc1 (stereo not given)	·	0%	-2.2%	-6	-5%	·	14
O=C(O)C1=C(C(=O)Nc2ccc(F)c(Cl)c2)CCCC1	-13%	3%	-0.5%	-24	-2%	2.3	-5
O=S(=O)(c1ccc2c(c1)OCCO2)N1CCC(n2cnc3cc(F)ccc32)CC1	-8%	3%	2.1%	-6	-18%	-2.1	12

(listing goes on)
SMILES	Sfp inh	gsp ag	ClpP mod	TRPV1 potentiator	gsp antag	Menin MLL FP FL	TRPML1 inh
O=C(N/C(=C\c1ccc([N+](=O)[O-])cc1)C(=O)N1CCCCC1)c1ccco1	-10%	16%	·	1	-8%	0.2	31
CC(C)(C)C(=O)C[n+]1cccc(C(N)=O)c1	19%	?	-0.8%	1	20%	-1.3	-8
Cc1ccc(CC(=O)N(C)CC(=O)N(CC(C)C)c2c(N)n(CC(C)C)c(=O)[nH]c2=O)cc1C	·	12%	-3.4%	16	12%	·	20
COc1ccc(NC(=O)CN(C)S(=O)(=O)c2ccccc2)cc1OC	5%	-3%	-0.7%	7	7%	0.2	13
O=S(=O)(NC1CC1)c1ccc(S(=O)(=O)N2CCc3ccccc32)cc1	5%	-3%	2.1%	0	2%	?	34
CCn1ncc([N+](=O)[O-])c1C(=O)N1CCc2ccccc2C1	8%	8%[15.4 µM]	·	0	4%	0.6	-10
CCOn1c(=O)c(-c2cccc([N+](=O)[O-])c2)[n+]([O-])c2ccccc21	-6%	0%[15.4 µM]	·	-2	11%	7.0	-11
Cc1ccccc1Cn1cnc2c(nnn2Cc2ccc(F)cc2)c1=O	7%	?	-0.2%	-6	8%	5.1	11
C=CCN1C(=O)/C(=C/c2ccc(-c3ccc(F)cc3)o2)SC1=S	56µM*	·	0.9%	?	-2%	?	0
Cc1ccc(NC(=O)C2CCCN2c2nn3c(=O)cc(C)nc3s2)cc1 (stereo not given)	20%	?	0.5%	-25	-9%	11	49
O=C(CSc1nc(Cc2ccccc2)nc2ccccc12)c1ccc2c(c1)OCCO2	-14%	-18%	-8.9%	-6	-2%	-1.0	7
Cc1ccc(S(=O)(=O)N2CCCCC2)cc1NC(=O)COC(=O)CNC(=O)c1cc(Cl)cc([N+](=O)[O-])c1	12%	-45%	-1.6%	3	-12%	6.4	-18
Clc1ccc(CSc2ncnc3nc[nH]c23)cc1	3%	9%	1.5%	-10	2%	6.3	30
Cc1ccc(-c2onc3ccc(C4OCCO4)cc23)cc1	-14%	-6%[15.4 µM]	·	-25	·	1.5	15
CCc1ccc(CN(C(=O)c2ccco2)C2CCS(=O)(=O)C2)cc1 (stereo not given)	14%	10%[15.4 µM]	-1.3%	3	2%	0.6	-1
